Screens deposited in PubChem by Johns Hopkins Ion Channel Center.
KCNQ2 block – KCNQ2 channel blockers in CHO-K1 cells – cell-based, FluxOR thallium flux, B-score, primary screen (AID 2156); O88943; 20 min; stronger effect = lower value; only compounds with negative scores are shown here; some inactives read as strong as hits; B-score at 10 µM; 310,000 compounds, 1.1% hits;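 active = fluorescence ratio B-score at most minus 3 library SDs, with starting brightness B-score within 2 library SDs, cut at about -5.5 in these data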
Target sequence (O88943 whole entry, looked up): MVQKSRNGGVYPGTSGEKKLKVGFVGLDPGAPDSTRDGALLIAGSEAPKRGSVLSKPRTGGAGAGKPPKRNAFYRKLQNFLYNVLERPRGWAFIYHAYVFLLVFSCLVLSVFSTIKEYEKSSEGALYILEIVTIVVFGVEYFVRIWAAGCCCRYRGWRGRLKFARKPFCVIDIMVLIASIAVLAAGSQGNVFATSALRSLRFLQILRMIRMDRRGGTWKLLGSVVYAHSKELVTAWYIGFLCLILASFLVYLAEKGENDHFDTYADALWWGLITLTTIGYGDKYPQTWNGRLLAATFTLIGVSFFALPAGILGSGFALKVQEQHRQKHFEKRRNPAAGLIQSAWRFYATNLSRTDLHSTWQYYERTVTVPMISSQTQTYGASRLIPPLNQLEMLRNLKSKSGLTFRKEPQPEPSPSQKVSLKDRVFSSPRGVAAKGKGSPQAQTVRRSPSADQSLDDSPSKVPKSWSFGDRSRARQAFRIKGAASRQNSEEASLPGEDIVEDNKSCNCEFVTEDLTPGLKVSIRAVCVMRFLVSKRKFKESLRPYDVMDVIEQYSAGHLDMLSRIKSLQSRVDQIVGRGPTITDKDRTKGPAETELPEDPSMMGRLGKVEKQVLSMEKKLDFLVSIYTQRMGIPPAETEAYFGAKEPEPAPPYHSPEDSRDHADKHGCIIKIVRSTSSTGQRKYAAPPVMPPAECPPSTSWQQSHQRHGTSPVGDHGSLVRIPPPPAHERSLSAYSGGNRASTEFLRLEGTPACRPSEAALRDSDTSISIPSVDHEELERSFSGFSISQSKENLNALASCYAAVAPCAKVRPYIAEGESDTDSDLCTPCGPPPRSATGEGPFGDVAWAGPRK
KCNQ2 block baseline – also measured in KCNQ2 block; calls as there; B-score; measured here: initial fluorescence intensity artifact check;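 brightness before thallium and not channel activity; 0 = typical well and far values either way flag optical interference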
Numbers without * were called inactive; i = inactive.

SMILES	KCNQ2 block	KCNQ2 block baseline
Cc1ccc(S(=O)(=O)NC(C)C(=O)Nc2ccc(C(N)=O)cc2)cc1 (configuration not stated)	i	0.85
Cc1ccc(NC(=O)Cn2nnc(C(=O)Nc3ccc(C)c(C)c3)c2N)cc1	i	-1.1
CCOC(=O)CSc1nnc(CNc2cccc(Cl)c2)n1-c1ccccc1	-6.4*	-1.1*
CCC1CN(C(=O)N2CCC(C(=O)NCCc3ccccc3)CC2)c2ccccc2O1 (configuration not stated)	i	-3
O=C(c1ccccc1[N+](=O)[O-])N1CCC(Cc2ccccc2)CC1	i	1.7
Cc1cccc(NC(=S)NNC(=O)c2nn(C)cc2Cl)c1	i	0.47
Cc1cc(NC(=O)C(C)SCC(=O)N(C)CC(=O)Nc2ccc(Br)cc2C)no1 (configuration not stated)	i	2.6
COc1ccc(C(=O)N/C(=C\c2ccco2)C(=O)NC2CCS(=O)(=O)C2)cc1 (configuration not stated)	i	0.33
CCCC(C)NC1=NCCCCC1 (configuration not stated)	i	-0.27
CC(=O)c1ccc(NC(=O)COc2ccccc2C(=O)Nc2ccccc2)cc1	i	0.17
COc1ccc(NC(=O)c2ccc(COc3ccccc3)o2)cc1	i	-0.33
Cc1ccc(-n2[nH]c(C)c(/C=C3/C=Nc4ccccc43)c2=O)cc1C	i	-0.81
Cc1ccc(S(=O)(=O)N2CCCC2CNC(=O)C(=O)Nc2ccc(F)cc2)cc1 (configuration not stated)	i	-0.85
Cc1ccc(C(=O)NCCc2cc3ccc(C)c(C)c3[nH]c2=O)cc1[N+](=O)[O-]	i	-0.24
c1ccc2sc(N3CN(CCN4CCOCC4)CN(c4nc5ccccc5s4)C3)nc2c1	i	0.41
CC(C)N(CCNC(=O)C1CCN(S(=O)(=O)N2CCOCC2)CC1)Cc1ccccc1	i	0.99
Cc1c(C(=O)N2CCN(c3ccccc3)CC2)sc2ncnc(N3CCC(C)CC3)c12	i	0.56
O=C(COC(=O)/C=C/c1ccccc1)NCC1CCCO1 (configuration not stated)	i	6.1
O=C(NCCCn1ccnc1)C(=O)NCC(c1ccco1)N1CCN(c2ccc(F)cc2)CC1 (configuration not stated)	i	1.9
CCOc1ccc(S(=O)(=O)N2CCC(C(=O)N3CCc4ccccc4C3)CC2)cc1	i	-1.8
COC(C(=O)Nc1ccc(NC(=O)C(OC)c2ccccc2)cc1)c1ccccc1 (configuration not stated)	i	-0.9
COC(=O)CN1C(c2ccc(OC)cc2)=Nc2ccc(Cl)cc2C1c1ccccc1 (configuration not stated)	i	1.8
O=C(COc1ccc(Cl)cc1[N+](=O)[O-])N1CCCCCC1	i	-2.3
CC1CCCCN1C(=O)COc1ccc2ccc(=O)oc2c1 (configuration not stated)	i	-1.4
CCC12CN(C(=O)c3ccco3)CC(CC)(CN(C(=O)c3ccco3)C1)C2=O	i	-1.5
C/C(=N\Nc1ccc(C#N)cc1[N+](=O)[O-])c1ccc(O)cc1	i	-0.25
CCOc1ccc(Br)cc1C(=O)N/N=C/c1c[nH]c2ccccc12	i	0.14
COc1ccccc1NC(=O)Cn1nnc(-c2ccccc2NC(=O)c2cccs2)n1	i	0.09
CCN(CC)CCCN1C(=O)C(O)=C(C(=O)c2cc3cccc(OC)c3o2)C1c1ccncc1 (configuration not stated)	i	0.33
N#C/C(=C\c1ccccc1)C(=O)NC(=O)Oc1ccccc1	i	1.6
COC(=O)Cc1c(C)nc2nc(-c3ccc(C)cc3)[nH]n2c1=O	i	0.32
O=c1oc2ccccc2n1CSc1nc2ccccc2s1	i	0.74
CCOC(=O)C1=C(c2ccccc2)NC(=O)NC1c1cc(OC)c(O)c([N+](=O)[O-])c1 (configuration not stated)	i	2
CC(=O)C1=C(O)C(=O)N(Cc2ccccc2)C1c1ccc(Cl)cc1 (configuration not stated)	i	2
CCCCCOC(=O)Nc1ccc(S(=O)(=O)Nn2cnnc2)cc1	i	-0.03
COc1cc(OC)c(C2=NOC(C(=O)NCc3cccs3)C2)cc1Cl (configuration not stated)	i	-0.52
CCOc1ccc(C(=O)N(Cc2ccccc2)c2cccc(C)c2)cc1OC	i	-0.75
COc1ccc(CCNC(=O)c2ccc(N(C)S(=O)(=O)c3ccc(C)cc3)cc2)cc1	i	-3.2
COc1cc(C(=S)N2CCOCC2)cc(OC)c1OC(=O)c1ccc(C)cc1	i	0.76
Cc1cccc(NC(=O)c2cc3c(s2)-c2c(C)cccc2OC3)n1	i	-0.03
Cc1c(O)ccc(C(=O)COc2ccccc2F)c1O	i	-0.01
Cc1cc(C)nc(-n2nc(C)c3c(C(=O)O)cc(-c4cccc(Br)c4)nc32)n1	i	3.5
Cc1c(C)[n+](=O)c(-c2ccc(F)cc2)c(C)n1[O-]	i	-0.01
COc1ccc(Br)cc1CN(C)C(=O)Cc1ccc(S(=O)(=O)N2CCOCC2)s1	i	0.18
COc1ccc(CN(C(=O)CN2C(=O)COc3ccccc32)C2CCCC2)c(OC)c1	i	0.01
Cc1ccc(-c2nnn(CC(=O)N(CCN3CCOCC3)C(C(=O)NC3CCCC3)c3ccncc3)n2)o1 (configuration not stated)	i	-1.4
CC(Sc1c[nH]c2ccccc12)C(=O)O (configuration not stated)	i	1.9
CCCn1c(-c2cccs2)nc2ccccc21	i	0.36
COc1ccc(CN2C(=O)NC(C)(c3ccc(C)cc3)C2=O)cc1F (configuration not stated)	i	-0.24
O=C(c1ccccc1Cl)N1CCn2c1nc1ccccc12	i	-0.7
Further entries
SMILES	KCNQ2 block	KCNQ2 block baseline
CCN(CC)C(=O)Nc1ccccc1C	i	1.3
Cc1cc2oc(=O)cc(-c3cc4ccccc4o3)c2cc1O	i	0.44
Cc1c(C(=O)NCc2cccs2)oc2ccccc12	i	-0.16
O=C(CCCCCn1c(=O)[nH]c2ccsc2c1=O)NCc1cccs1	i	-0.18
Clc1ccc(C2=NNC(=NCc3ccccc3)SC2)cc1	i	0.24
CC1CCCC(C)N1/N=C/c1cc(Br)cc(Br)c1O (configuration not stated)	i	0.57
C=CCNC(=O)CCCc1ccccc1	i	-1.2
CN1/C(=C\C=C(C#N)C#N)C(C)(C)c2ccccc21	i	1.8
CS(=O)(=O)Cc1ccc(C(=O)Nc2cccc(-c3nc4ccccc4[nH]3)c2)cc1	i	0.45
O=C(CC1C(=O)NCCN1Cc1c(F)cccc1Cl)NCCCn1cccn1 (configuration not stated)	i	-0.17
CCOc1ccc(Nc2ccc(N3C(=O)CCC3=O)cc2[N+](=O)[O-])cc1	i	0.51
C/C(=N\Nc1ccc(F)cc1F)c1ccc(N2CCOCC2)cc1	i	-1.4
CC(C)(C)SCCSC1=CC(=O)CC(c2ccccc2)C1 (configuration not stated)	i	-1.1
Cc1ccc2[nH]c(=O)c3cc(C(=O)N(C)c4ccc(C)c(C)c4)sc3c2c1	i	3.3
COc1ccc(CNC(=O)C(=O)NCCC2CCCCN2S(=O)(=O)c2cccs2)cc1 (configuration not stated)	i	2.8
C=CCn1c(Cc2cccs2)nnc1SCC(=O)Nc1ccc(C(=O)OCC)cc1	i	-1.1
COC(=O)c1ccccc1NC(=O)CSc1nc2cccnc2n1C	i	0.42
O=C(Cn1cc2c(n1)CCCC2)Nc1ccccc1Cl	i	-2.3
COc1cc([N+](=O)[O-])cc(/C=N/NC(=O)c2cc(-c3ccccc3)nc3ccccc23)c1O	i	0.14
CCOc1ccc2nc(SCC(=O)Nc3ccc4c(c3)OCCO4)[nH]c2c1	i	-0.28
COc1ccc(C(=O)NCCS(=O)(=O)N2CCOCC2)cc1	i	-0.18
COC(=O)c1ccccc1NC(=O)C1CC(c2ccc(F)cc2)=NO1 (configuration not stated)	i	0.58
COc1ccccc1C(=O)Nc1ccccc1C(=O)N1CCCC1	i	-0.04
CSc1ccc(S(=O)(=O)N(CC(=O)NCc2ccccn2)c2ccc(C)cc2)cc1	i	0.65
N#Cc1cccc(NC(=O)COC(=O)c2cccc(N3C(=O)c4ccccc4C3=O)c2)c1	i	-0.02
CC1CN(C(=O)COC(=O)c2cc(Cl)ccc2[N+](=O)[O-])CC(C)O1 (configuration not stated)	i	-0.58
Cc1ccccc1NC(=S)N(C)Cc1cccs1	i	0.22
CC(C)(C)Cc1nnc(NC(=O)CN2C(=O)c3ccccc3C2=O)s1	i	0.15
Cc1cc(C)cc(NC(=O)CN2CCN(CCN=CC3=C(O)CC(C)(C)CC3=O)CC2)c1	i	0.16
CC(C)OC(=O)CCc1nc2ccccc2[nH]c1=O	i	-0.32

A draw from above in order of molecular weight, largest number first.
SMILES	KCNQ2 block	KCNQ2 block baseline
Cc1cc(C)cc(NC(=O)CN2CCN(CCN=CC3=C(O)CC(C)(C)CC3=O)CC2)c1	i	0.16
Cc1ccccc1NC(=S)N(C)Cc1cccs1	i	0.22
CC(C)OC(=O)CCc1nc2ccccc2[nH]c1=O	i	-0.32

Other compounds:
SMILES	KCNQ2 block	KCNQ2 block baseline
CCCCCn1c(SCCN2CCOCC2)nc2c1c(=O)[nH]c(=O)n2C	i	-0.32
O=c1cc(O)n(Cc2ccc(F)cc2)c(=O)[nH]1	i	2.5
Cc1c(C)[n+](=O)c2c(n1[O-])C(Br)CCC2Br (configuration not stated)	i	-2
CCN(CC)c1ccc(S(=O)(=O)N2CCOCC2)cc1NC(=O)COC(=O)/C=C/c1ccc(C)o1	i	1.7
O=C(CSc1nnc(CNc2ccc(F)cc2)n1Cc1ccco1)N1CCOCC1	i	0.08
CC(C)CN(C(=O)/C=C/c1nc2ccccc2s1)C1CCS(=O)(=O)C1 (configuration not stated)	i	0.15
O=S(=O)(c1ccccc1)N1CCN(C(=S)NC2CCCC2)CC1	i	0.47
O=C1/C(=C\c2cccnc2)SC(=S)N1c1ccc(F)cc1	i	-2.2
CN(C)Cc1c(O)ccc2ccccc12	i	-0.93
Cc1ccccc1OCC(=O)OCC(=O)c1ccc(OC(=O)c2ccccc2)cc1	i	1.2
O=C(CSC1=NCCS1)Nc1ccc(F)cc1	i	0.03
Cc1cc(C)cc(N(CC(=O)NC2CCCCCC2)S(=O)(=O)c2c(C)[nH]c(=O)[nH]c2=O)c1	i	0.73
COc1ccccc1NC(=O)Nc1nnc(Cc2ccccc2F)s1	i	3.1
CCc1nc(NCCO)c(C#N)c2c1CSC(C)(C)C2	i	-0.61
Cc1csc2c(=O)sc(NC(=O)c3ccco3)nc12	i	-0.37
CC1(C)CC(=O)C=C(NCc2ccco2)C1	i	-0.26
CCO[C@H]1OC(C(=O)N2CCN(C)CC2)=C[C@@H](C2CC2)[C@@H]1CCCO	i	0.29
Cc1ccc(S(=O)(=O)N2CCN(C(=O)Cn3nc(C(=O)O)c4ccccc4c3=O)CC2)cc1	i	0.46
COc1ccc(NCN2C(=O)CCC2=O)cc1	i	-1
Cc1ccc2c(c1)N(CCC(=O)NCc1ccccn1)C(=O)CO2	i	1.4
O=C1NC(=S)N/C1=C\C=C\c1ccccc1	i	1.7
Cc1cc(=O)oc2cc(NS(=O)(=O)c3ccccc3)ccc12	i	-0.6
CN(C)c1cccc(C(=O)NCCCn2ccc3ccccc32)c1	i	0.86
CCCCOc1ccccc1Cn1c(=O)oc2ccc(C)cc21	i	0.06
CC(OC(=O)c1cccc(-n2cnnn2)c1)C(=O)Nc1ccc(N(C)C)cc1 (configuration not stated)	i	1.1
Cc1ccc2c(c1)N(C(=O)CCC(=O)NCCCN1CCOCC1)CC(C)O2 (configuration not stated)	i	-0.1
COCCn1nnnc1C(c1ccccn1)N1CCN(c2cc(Cl)ccc2C)CC1 (configuration not stated)	i	-1.7
CC(Oc1ccccc1)C(=O)N=C1SC2CS(=O)(=O)CC2N1c1cccc(F)c1 (configuration not stated)	i	2.1
CCCc1cc(=O)[nH]c2nnc(SCC(=O)Nc3ccc(C(C)=O)cc3)n12	i	1.4
CCCC(C)NC(=O)CSc1nc2ccc(C)cc2[nH]1 (configuration not stated)	i	-0.97
COc1ccc(/C=C(/NC(=O)c2ccccc2)C(=O)N2CCCCC2)cc1	i	-0.33
CC1=C(C(=O)NCc2ccccc2)C(c2cccs2)NC(=S)N1 (configuration not stated)	i	0.61
COC(=O)c1cc(=O)n(Cc2ccco2)c(=Nc2ccc(F)cc2)s1	-6*	-0.06*
CC1CCN(C(=O)C(NS(=O)(=O)c2cccc3nsnc23)C(C)C)CC1 (configuration not stated)	i	0.19
COc1ccc(Cc2noc(COc3ccc(Cl)cc3)n2)cc1	i	-0.53
COc1ccc(/C=C(\NC(=O)c2ccc(C)cc2)C(=O)NCCCn2ccnc2)cc1	i	2.5
O=C(Nc1ccccc1)N1CCCC(c2nc(-c3ccc(F)cc3)no2)C1 (configuration not stated)	i	-1.2

Compounds shown so far with fluorine (16):
SMILES	KCNQ2 block	KCNQ2 block baseline
Cc1ccc(S(=O)(=O)N2CCCC2CNC(=O)C(=O)Nc2ccc(F)cc2)cc1 (configuration not stated)	i	-0.85
O=C(NCCCn1ccnc1)C(=O)NCC(c1ccco1)N1CCN(c2ccc(F)cc2)CC1 (configuration not stated)	i	1.9
Cc1c(O)ccc(C(=O)COc2ccccc2F)c1O	i	-0.01
Cc1c(C)[n+](=O)c(-c2ccc(F)cc2)c(C)n1[O-]	i	-0.01
COc1ccc(CN2C(=O)NC(C)(c3ccc(C)cc3)C2=O)cc1F (configuration not stated)	i	-0.24
O=C(CC1C(=O)NCCN1Cc1c(F)cccc1Cl)NCCCn1cccn1 (configuration not stated)	i	-0.17
C/C(=N\Nc1ccc(F)cc1F)c1ccc(N2CCOCC2)cc1	i	-1.4
COC(=O)c1ccccc1NC(=O)C1CC(c2ccc(F)cc2)=NO1 (configuration not stated)	i	0.58
O=c1cc(O)n(Cc2ccc(F)cc2)c(=O)[nH]1	i	2.5
O=C(CSc1nnc(CNc2ccc(F)cc2)n1Cc1ccco1)N1CCOCC1	i	0.08
O=C1/C(=C\c2cccnc2)SC(=S)N1c1ccc(F)cc1	i	-2.2
O=C(CSC1=NCCS1)Nc1ccc(F)cc1	i	0.03
COc1ccccc1NC(=O)Nc1nnc(Cc2ccccc2F)s1	i	3.1
CC(Oc1ccccc1)C(=O)N=C1SC2CS(=O)(=O)CC2N1c1cccc(F)c1 (configuration not stated)	i	2.1
COC(=O)c1cc(=O)n(Cc2ccco2)c(=Nc2ccc(F)cc2)s1	-6*	-0.06*
O=C(Nc1ccccc1)N1CCCC(c2nc(-c3ccc(F)cc3)no2)C1 (configuration not stated)	i	-1.2

The list is partial. The share of hits here may be higher or lower than overall.
